# Vaccinia Venus: vaccinia inhibition (Venus reporter); Potency, µM (highest dose often 36.5 µM), without a hit: top-dose activity change, negative = inhibition, most hits filed as inhibitors; 330,000 compounds, 0.46% hits; Vaccinia virus Venus reporter expression, fluorescence; active means well fitted inhibition curve with a large enough effect; inconclusive means small, poorly fitted or top-dose-only effect; inactive means no such curve, though single readings can be large or run the other way; tested in A549 cells; note: nearly all actives have a fitted effect of over 30% in size; inactives centre near -10
# Vaccinia mCherry: inhibitors of vaccinia virus infection (mCherry reporter signal) | 310,000 compounds, 0.63% hits | Vaccinia virus mCherry reporter infection, fluorescence; about a quarter of the inactives have no number | AID 720579 | Potency, µM (doses to about 36.5 µM), inactives show at the top dose activity change, negative = inhibition, usual class: inhibitors; active = well fitted inhibition curve with a large enough effect; inconclusive = small, poorly fitted or top-dose-only effect; inactive = no such curve, though single readings can be large or run the other way; tested in A549 cells; note: nearly all actives have a fitted effect of over 35% in size; inactives centre near -10
# * = called active by the depositor; i = inactive; ? = inconclusive; · = not tested or not shown; & = joins results of further samples; [ ] = another dose, or the depositor's remark. % is set by controls: 0 for no effect and ±100 for the full control effect; potency is the fitted concentration of half-maximal effect.
# Screens in order – Vaccinia Venus	Vaccinia mCherry
- COc1ccc(/C=C/C(=O)NCC(=O)N/N=C/c2ccc(OC)cc2)cc1
 : -1%	i
- NC(=Nc1ccccc1)N(c1ccccc1)c1ccccc1
 : -4%	i
- O=C(N/N=C/c1c(O)n(-c2ccc(Cl)cn2)c(=O)c2ccccc12)c1ccncc1
 : -3%	-12%
- C=C(C)c1cccc(C(C)(C)NC(=O)Nc2ncccn2)c1
 : -13%	-3%
- Cc1cc(C)c(OCCCON2C(=O)CCC2=O)c(Br)c1
 : -2%	-9%
- COc1cc(OC)cc(C(=O)NNC(=O)C2CCCC2)c1
 : 2%	-13%
- COc1ccc(CCN=C(N)NS(=O)(=O)c2cc(F)ccc2OC)cc1
 : -10%	i
- COC(=O)[C@@]12C[C@@H](CC(=O)NCc3ccc(C)o3)C(=O)N(CCc3ccc(OC)c(OC)c3)C1=CCC(C)(C)C2
 : ?	-14%
- COc1ccc(C)cc1NC(=O)CN1c2ccccc2S(=O)(=O)c2ccccc21
 : 0%	3%
- Cc1ccnc2nc(C(=O)OCC(=O)N(CC(C)C)CC(C)C)nn12
 : -10%	-14%

# Remaining list, next part:
# Screens in order – Vaccinia Venus	Vaccinia mCherry
- COc1ccc(-c2nc3cnccn3c2Nc2ccc(C)cc2)cc1
 : -14%	13%
- COc1cccc(N2CC(NC(=O)/C=C\c3ccc(OC)c(OC)c3)CC2=O)c1 (stereo not given)
 : -11%[7.34 µM]	-8%[7.34 µM]
- O=C(Nc1cccc(Cl)c1)/C(=C\c1cccnc1)NC(=O)c1ccco1
 : -1%	-17%
- N#C/C(=C(\O)CCl)c1nnc2n1CCCCC2
 : -24%	·
- COc1cc(C(=O)N2C[C@@H]3CCC[C@H]2C3)ccc1OC1CCN(C(C)=O)CC1
 : -1%	-4%
- Cc1ccccc1Cn1c(=O)n(CCC(=O)NCc2ccc3c(c2)OCO3)c(=O)c2ccccc21
 : -10%	-17%
- CN1CCN2c3ccc(N)cc3CC3(C(=O)NC(=O)NC3=O)C2C1 (stereo not given)
 : 3%	-12%
- COC(=O)[C@H](C)NC(=O)Nc1ccc(C)c(C)c1
 : -10%	·
- CCN(CC)CCCN1CC(=O)N2[C@@H](Cc3c([nH]c4ccccc34)C2(C)C)C1=O
 : -23%	-26%
- CSc1nc2ncc(-c3ccsc3)c(N)n2n1
 : 2%	-7%

# Additional results follow.
# Screens in order – Vaccinia Venus	Vaccinia mCherry
- COc1cc(-c2cc3nc(NC4CCCCC4)ccn3n2)cc(OC)c1OC
 : -22%	8%
- CCCCNc1sc(S(=O)(=O)CCC)nc1S(=O)(=O)c1ccc(C)cc1
 : -11%	-17%
- CCCCCCSc1cc(-c2nc3cnccn3c2NCc2ccccc2)ccc1OC
 : -22%	?
- Cc1ccc(CNC(=O)CCCN2C(=O)COc3ccc(C)cc32)cc1
 : -11%	-9%
- Cc1ccc(S(=O)(=O)NCc2ccc(/C=C(/C#N)C(=O)NCc3ccccc3)o2)cc1
 : -10%	i
- c1ccc2nc(-c3nc4ccccc4[nH]3)ccc2c1
 : -19%	-9%[1.46 µM]
- c1ccc(C2=Nn3c(nnc3-c3n[nH]c4c3CCC4)SC2)cc1
 : -20%	·
- CC(C)CCCN1C(Nc2ccccc2)=NC[C@@H]1C
 : -19%	i
- [N-]=[N+]=NCCN1CCN(CCc2ccccc2)CCC1=O
 : -1%	i
- Cc1ccc(NC(=O)C2CCCCC2)cc1C
 : -10%	-5%

# (next part)
# Screens in order – Vaccinia Venus	Vaccinia mCherry
- COc1ccc(-c2cc(C(=O)Nc3cc(OC)cc(C(=O)Nc4cccc(C(F)(F)F)c4)c3)[nH]n2)cc1
 : ?	-7%&-15%
- CCN1CCN(c2ccc(S(=O)(=O)N3CCCCC3)cc2NC(=O)COc2ccc(Cl)cc2)CC1
 : -28%	-12%
- COc1cccc(CNCc2ccc(C(=O)O)cc2)c1OC
 : -2%	?
- CCC(C)C(NC(N)=O)C(=O)Nc1ccc(C(=O)OC)cc1 (stereo not given)
 : -9%	i
- O=C(O)C(=O)/C(=C\c1ccccc1)c1ccc2ccccc2n1
 : -3%	·
- Cc1ccc(C(c2c(C)nn(-c3ccccc3)c2N)c2c(C)nn(-c3ccccc3)c2N)cc1
 : -5%	-15%
- COc1cccc(CNC(=O)CCNS(=O)(=O)c2ccc3c(c2)oc(=O)n3C)c1
 : -9%	-1%
- Cc1cc(Br)cn2c(CC(C)(C)C)c(-c3cccc(Cl)c3)nc12
 : -3%	i
- COc1ccc2[nH]c3c(c2c1)CCN1C(=O)C(CC(=O)NCCCN(C)C)C[C@H](C(=O)N(C(C)C)C(C)C)[C@@]31C (stereo not given in full)
 : 0%	-21%
- CCOC(=O)C1(Cc2ccccc2)CCCN(C(=O)c2cnn(CC)c2)C1 (stereo not given)
 : -5%	i

# (next part)
# Screens in order – Vaccinia Venus	Vaccinia mCherry
- C=C(C)C(O)CC/C(C)=C/Cc1c(O)ccc(C(=O)/C=C/c2ccc(O)cc2)c1O (stereo not given)
 : 0%	-15%
- CC(C)C12CN3CC(C(C)C)(CN(C1)C3c1ccccc1)C2O (stereo not given)
 : 5%	13%
- CCOC(=O)Cc1nnc(Nc2ccc(C)cc2C)c2ccccc12
 : -18%	-10%
- O=C(OCC(=O)N1CCCCC1)c1c[nH]c(=O)[nH]c1=O
 : -8%	i
- Cc1cc(C(=O)CN2C(=O)C(=O)N(CC(C)C)C2=O)c(C)n1-c1ccccc1F
 : -2%	-5%
- Cc1ccc(N2C(=O)N(CC(=O)N3CCc4ccccc43)C(=O)C2C)cc1 (stereo not given)
 : -21%	i
- CCOC(=O)c1ccc(NC(=S)N(CCCN2CCCC2)Cc2cccs2)cc1
 : -16%	-17%
- COc1ccc(Cl)cc1NC(=O)CCCN1C(=O)CCC1=O
 : -6%	-14%
- O=C(CCCC(=O)N(CC(=O)NC1CCCCC1)c1ccccc1F)Nc1ccccn1
 : -7%	-9%
- O=C1N(Cc2ccccc2)c2ccc(Br)cc2[C@]12C[C@H](O)CO2
 : -9%	i

# Carrying on:
# Screens in order – Vaccinia Venus	Vaccinia mCherry
- COc1ccc2c(Sc3ccc(Cl)cc3)c(C(=O)N3CCCCC3)[nH]c2c1
 : -15%	-10%
- COc1ccc(S(=O)(=O)N2CCN(CC(=O)NC3CCCC3)CC2)cc1
 : -13%	-13%
- Cc1cccc(OCCSCc2nc3ccccc3[nH]2)c1
 : -18%	·
- COc1ccccc1NC(=O)Nc1cc(NC(=O)Nc2ccccc2OC)c(C)nc1C
 : -25%	-4%
- Cc1cc(OCC(=O)NCc2cccnc2)c2c(C)c(Cc3ccccc3)c(=O)oc2c1
 : -18%	-28%
- O=C(COCc1nc2ccccc2c(=O)[nH]1)NCC1CCCCC1
 : 0%	?
- CN(c1ccc(C(=O)Nc2ccc(S(=O)(=O)N3CCCC3)cc2)cc1)S(C)(=O)=O
 : -26%	-27%
- CC1(c2cccs2)CC(c2cccs2)=C(C#N)C(=O)N1 (stereo not given)
 : -13%	-2%
- Cn1c(CN2CCCC(C(=O)c3ccc4c(c3)OCO4)C2)nc2ccccc21 (stereo not given)
 : -6%	i
- C/C(=N\NC(=O)CSc1nnc(C)s1)c1ccc(O)cc1
 : -9%	-1%

# Part of the list above in a different format:
COc1ccccc1NC(=O)Nc1cc(NC(=O)Nc2ccccc2OC)c(C)nc1C
  Vaccinia Venus: -25%	Vaccinia mCherry: -4%

Cc1cc(OCC(=O)NCc2cccnc2)c2c(C)c(Cc3ccccc3)c(=O)oc2c1
  Vaccinia Venus: -18%	Vaccinia mCherry: -28%

# Next part
# Screens in order – Vaccinia Venus	Vaccinia mCherry
- Cc1ccc(N2C(=O)/C(=C/c3ccc(CN(CCC#N)S(C)(=O)=O)o3)C(=O)NC2=S)cc1
 : 14%	-6%
- CC1Cc2ccccc2N1C(=O)COC(=O)c1ccccc1NCCO (stereo not given)
 : -15%	0%
- CCCCNC(=S)N(C)/N=C/c1ccccc1F
 : -16%	-15%
- COc1ccc(/C=C(/NC(=O)c2ccccc2)C(=O)NCc2ccncc2)cc1
 : -17%	i
- CCC(Oc1ccccc1)C(=O)NC1CCSC1=O (stereo not given)
 : 2%	-1%
- Cc1ccc(-c2nnc(SCCC(=O)N3CCOCC3)o2)cc1
 : -15%	-4%
- Cc1ccc2c(c1)c(=O)c(C(=O)c1ccncc1)cn2CC(=O)Nc1c(C)cccc1C
 : -8%[7.34 µM]	-2%[7.34 µM]
- CCOc1cc(/C=N/NC(=O)COc2ccc(C)cc2)ccc1OC(=O)c1cccs1
 : -8%	i
- Cc1ccccc1Cn1nc(C)c(NC(=O)/C=C/c2cnn(C)c2C)c1C
 : -9%	-12%
- O=C(/C=C/c1ccc(OC(F)F)cc1)OCC(=O)N1CCc2ccccc21
 : -23%	-4%

# More records
# Screens in order – Vaccinia Venus	Vaccinia mCherry
- O=C(CN1CCC(NC(=O)c2cccc(F)c2)CC1)NCc1ccccc1F
 : -6%	-20%
- COCCNc1nnc(SCC(=O)N(C)c2c(N)n(Cc3ccccc3)c(=O)[nH]c2=O)s1
 : -13%	i
- COc1ccc(C2C(C(=O)Nc3ccccc3OC)=C(C)Nc3nnnn32)c(OC)c1 (stereo not given)
 : -13%	·
- CCCn1c(CCC(=O)Nc2ccc(C)c(Cl)c2)nc2cccnc21
 : -9%	-8%
- O=c1c(-c2ccc(Cl)cc2)c(C(F)(F)F)oc2c(CN3CCCCC3)c(O)ccc12
 : -9%	-14%
- CCS(=O)(=O)c1ccc(C(=O)Nc2ccccc2)c(Cl)c1Cl
 : -25%	·
- O=C(Cn1c2ncccc2c(=O)n1-c1ccccc1)Nc1cccc(C(F)(F)F)c1
 : -1%	-5%
- Cc1cccc(NC(=O)c2cccc(S(=O)(=O)NCc3ccccc3)c2)n1
 : -7%	i
- O=C(COc1ccc(F)cc1)Nc1ccccc1N1CCOCC1
 : -11%	-18%
- CCN(CC)S(=O)(=O)c1ccc(NS(=O)(=O)c2ccc(OC)c([N+](=O)[O-])c2)cc1
 : -18%	-14%

# Continued.
# Screens in order – Vaccinia Venus	Vaccinia mCherry
- COCCCNC(=O)Cn1c(=O)oc2cc(S(=O)(=O)N3CC(C)CC(C)C3)ccc21 (stereo not given)
 : -20%	-26%
- CCN(CC)C(=S)NC(=O)c1ccc(Cl)cc1Cl
 : -4%	-14%
- O=S1(=O)N=C(Nc2ccc(N3CCOCC3)cc2)c2ccccc21
 : -3%	-2%
- CCOc1cccc(NC(=O)c2ccc(S(=O)(=O)N(C)C)cc2)c1
 : -15%	-9%
- CN(C)C1=NCCN1CCCC1CCCC1
 : -16%	-6%
- O=C(CCNS(=O)(=O)c1ccc2c(c1)CCN2C(=O)C1CC1)Nc1ccc(OC(F)(F)F)cc1
 : -5%	-20%
- COc1ccc(OCCC(=O)OCC(=O)NCc2ccco2)cc1
 : -14%	-18%
- O=C(Nc1cccc(Cl)c1)c1ccccc1NC(=O)C1CCCCC1C(=O)O (stereo not given)
 : -18%	-6%
- NC(=O)CC(NC(=O)c1ccccc1)c1ccc(N2CCC(N3CCCC3)CC2)c([N+](=O)[O-])c1 (stereo not given)
 : -6%	i
- Cn1cc(S(=O)(=O)N2CCCC2)cc1C(=O)Nc1cccc(C(F)(F)F)c1
 : -22%	i

# (continued)
# Screens in order – Vaccinia Venus	Vaccinia mCherry
- COC(=O)c1ccc(OCC(O)CN(CCO)CC(O)Cn2ccc3ccccc32)cc1 (stereo not given)
 : -6%	-20%
- CCCC(=O)Nc1nc(C)c(-c2csc(Nc3ccccc3C)n2)s1
 : -19%	-22%
- O=C(Nc1ccc(N2CCCC2)cc1)c1ccc(Br)o1
 : -4%	i
- COc1ccc(-c2nnc(SCC(=O)NCCc3ccc(OC)c(OC)c3)nc2-c2ccc(OC)cc2)cc1
 : -5%	i
- CN1CCN(C(=O)c2cc3c(c(-c4cccc(-c5cccnc5)c4)n2)[C@H](CCO)N(C(=O)CC2CC2)C3)CC1
 : 13%	28%
- O=C(Nc1nc2ccc(Cl)cc2s1)c1ccc(N2CCCCC2)c([N+](=O)[O-])c1
 : -8%	i
- CC(=O)C1=C(C)NC(=S)NC1c1cccc([N+](=O)[O-])c1 (stereo not given)
 : -1%	5%
- Cc1occc1-c1nnc(-c2cc([N+](=O)[O-])cc([N+](=O)[O-])c2)o1
 : -12%	-7%
- O=C(C[n+]1ccncc1)c1cccc([N+](=O)[O-])c1
 : -12%	i
- COC(=O)COc1cccc2c(=O)n(CC(=O)NCCc3ccccc3)ccc12
 : 2%	i

# Reformatted field by field: entries from further up.
CCCC(=O)Nc1nc(C)c(-c2csc(Nc3ccccc3C)n2)s1
  Vaccinia Venus: -19% | Vaccinia mCherry: -22%

O=C(Nc1ccc(N2CCCC2)cc1)c1ccc(Br)o1
  Vaccinia Venus: -4% | Vaccinia mCherry: i

O=C(C[n+]1ccncc1)c1cccc([N+](=O)[O-])c1
  Vaccinia Venus: -12% | Vaccinia mCherry: i

COc1ccc(-c2nnc(SCC(=O)NCCc3ccc(OC)c(OC)c3)nc2-c2ccc(OC)cc2)cc1
  Vaccinia Venus: -5% | Vaccinia mCherry: i

# Further results.
# Screens in order – Vaccinia Venus	Vaccinia mCherry
- S=C(NC1CCCCC1)N1CCN(Cc2ccccc2)CC1
 : -2%	-21%
- CN1C[C@@H](CO)O[C@@H](n2cnc3c(N4CCN(CCO)CC4)ncnc32)C1
 : 3%	-7%
- Cc1cc2nc(C(C)(C)C)c(Cc3cccc(Cl)c3)n2c(C)c1Br
 : -6%	-4%
- O=C(NC(Cc1c[nH]c2ccccc12)C(=O)N1CCOCC1)c1cccs1 (stereo not given)
 : -21%	i
- CC(C)(CCc1ccccn1)C(=O)C(CCc1ccccn1)CCc1ccccn1
 : -16%	-1%
- Cc1cccc(C)c1OCC(=O)Nc1cccc(S(=O)(=O)N2CCCCCC2)c1
 : ?	-16%
- CC(C)N1CCC(NC(=O)Nc2ccccc2)CC1
 : 3%	-24%

# From PubChem
